AF4-AF9 inh: inhibitors of human MLL-AF4/AF9 interaction; inhibition, % at 10 µM; AlphaScreen, biotin-AF4 peptide binding to FLAG-AF9; AID 651704; 0.47% of 350,000 active;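 active = every replicate reaching a set inhibition limit, whatever the replicate mean, cut at about 25% in these data; inconclusive = mean inhibition reaches that limit but some replicates miss it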;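 note: 0% = plate neutral control median and 100% = total signal loss; the record names both 10 and 1 µM as test concentration; the first replicate is given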
Target sequence (P42568 whole entry, looked up): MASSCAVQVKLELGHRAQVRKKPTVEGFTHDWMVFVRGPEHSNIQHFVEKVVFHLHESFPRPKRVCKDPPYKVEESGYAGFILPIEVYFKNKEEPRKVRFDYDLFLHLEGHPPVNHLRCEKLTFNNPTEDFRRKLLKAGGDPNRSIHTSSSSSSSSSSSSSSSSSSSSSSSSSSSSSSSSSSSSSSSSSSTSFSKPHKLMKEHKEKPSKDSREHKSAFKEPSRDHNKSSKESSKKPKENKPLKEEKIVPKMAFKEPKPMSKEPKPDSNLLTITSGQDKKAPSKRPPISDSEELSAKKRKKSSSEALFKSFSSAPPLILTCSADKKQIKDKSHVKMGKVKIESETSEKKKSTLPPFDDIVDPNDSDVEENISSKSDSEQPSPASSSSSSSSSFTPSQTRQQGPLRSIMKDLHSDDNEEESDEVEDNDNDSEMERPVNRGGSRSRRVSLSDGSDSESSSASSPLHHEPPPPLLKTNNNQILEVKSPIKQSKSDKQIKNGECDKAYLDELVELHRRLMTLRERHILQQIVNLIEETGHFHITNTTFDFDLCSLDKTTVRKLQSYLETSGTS
UCH37 DUB inh: inhibitors of human deubiquitinating enzyme UCH37 | Q9Y5K5 | purified proteasome/UCH37, Ub-AMC cleavage fluorescence | inhibition, % (concentration not given with the values) | 0.33% of 330,000 active | AID 588478;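 active = mean of two replicates above 20%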;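 note: 0% = compound-free wells with enzyme and 100% = wells lacking proteasome; stock transfer was 100 nL into about 20 µL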
Target sequence (Q9Y5K5 whole entry, looked up): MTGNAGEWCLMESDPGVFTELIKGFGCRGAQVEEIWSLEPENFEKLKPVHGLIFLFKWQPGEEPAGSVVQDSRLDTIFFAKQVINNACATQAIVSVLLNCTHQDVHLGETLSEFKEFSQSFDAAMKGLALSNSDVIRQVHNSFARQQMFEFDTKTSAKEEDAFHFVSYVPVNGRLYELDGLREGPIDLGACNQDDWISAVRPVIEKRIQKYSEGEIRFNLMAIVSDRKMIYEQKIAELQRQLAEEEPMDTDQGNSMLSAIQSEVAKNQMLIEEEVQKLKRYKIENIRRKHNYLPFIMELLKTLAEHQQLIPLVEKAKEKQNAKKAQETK
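Material: Human UCH37 enzyme supplied as purified proteasome complex | Schedule: 30 min compound-proteasome preincubation then 25 min substrate reaction, room temperature | Detection: AMC fluorescence from Ub-AMC cleavage, excitation 355 nm, emission 460 nm | Benchmarks: Wells without proteasome as full block, compound-free enzyme plus substrate as uninhibited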
FGF22 binding: binders of recombinant human FGF22 by thermal shift; SYPRO orange fluorescence; percent of sucrose octasulfate shift, DMSO zero; calls only at 9.99 µM; 1.5% of 340,000 active; AID 651658;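 active = melting point raised past a set limit in the mean and every replicate; inconclusive = no clear call; three in four hits are not shown here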
Target sequence (Q9HCT0 whole entry, looked up): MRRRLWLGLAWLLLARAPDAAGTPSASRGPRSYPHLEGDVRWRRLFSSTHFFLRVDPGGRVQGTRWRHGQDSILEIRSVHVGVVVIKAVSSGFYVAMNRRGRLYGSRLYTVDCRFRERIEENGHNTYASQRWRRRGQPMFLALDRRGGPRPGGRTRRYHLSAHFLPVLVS
A1 inh: inhibitors of the anti-apoptotic protein A1, read as caspase activation; 0.066% of 330,000 active; MEF A1-2A-BIM cells, Caspase-Glo 3/7 luminescence, 3 h; percent of clofoctol response, vehicle zero; caspase activation, % (concentration not given with the values); AID 2462;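 active = over half of replicate activation scores above 10%, or exactly half above 10 with the replicate mean above 10; inconclusive = replicate mean below 10 yet half the replicates above 10; inactive = over half of replicates below 10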;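 note: wells of about 30 µL received 50 nL stock; many hits fall short of the cut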
T cruzi repl: blocks replication of Trypanosoma cruzi. T. cruzi beta-gal in NIH3T3, luminescence, 90 h. inhibition, % (no concentration beside the values). 1.4% of 300,000 active. AID 1885;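 active = mean inhibition across valid replicates above about 55%, limit read from the data; inconclusive = mean below that limit but half or more replicates reach it; inactive = mean below it, under half of replicates reach it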;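 note: signal also drops with host cell toxicity which is not excluded here; 0% = plate median of DMSO wells and 100% = zero luminescence signal; higher percent means less beta-gal luminescence so fewer parasites; stock transfer was 50 nL into about 50 µL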
Beta apoptosis: blocks beta cell apoptosis | INS-1E cytokine-induced death, ATP luminescence, 48 h; percent of positive-control rescue, neutral wells zero | protection from apoptosis, % (no concentration beside the values) | 0.8% of 300,000 active | AID 435005;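 active = all replicates at 75% or more, or half of them and the mean; inconclusive = half reach 75% but not the mean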;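 note: 0% = cytokine-treated negative control wells and 100% = positive control rescue; higher means more ATP so stronger rescue from cytokine killing; wells of about 40 µL received 100 nL stock; the first replicate is given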
E coli growth: blocks Escherichia coli growth; OD600, 23 h; active compounds read low; OD600 absorbance (test concentration not listed); 0.21% of 330,000 active;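 active = OD600 absorbance below the run mean of sample wells minus 3.6 SD, in any replicate, cut at about 0.56 in these data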;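 note: stock transfer was 300 nL into about 60 µL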
Ecoli rRNA inh: inhibitors of bacterial rRNA selective over humanized ribosomes; E. coli WT GFP vs humanized-ribosome RFP mutants, fluorescence, 24 h; active compounds read low; DMSO median 0, no signal -100; 1.6% of 350,000 active; AID 720706; GFP signal change (wild-type ribosome), % (concentration not given with the values);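 active = significant combined selectivity score with lowered wild-type GFP, culture density cut under 30%, mutant RFP and density less affected; inactive = any of these conditions unmet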; note: one replicate is shown; some compounds called inactive have numbers as strong as hits
Ecoli rRNA inh OD600: second read-out of Ecoli rRNA inh, no call of its own (marks repeat the call); OD600 change, %; measured here: OD600 growth;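 optical density of the mix in the first replicate; 0 = DMSO median and -100 = no signal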
Ecoli rRNA inh RFP: second read-out of Ecoli rRNA inh, no call of its own (marks repeat the call); RFP signal change, %; measured here: RFP humanized mutant strains;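 first replicate; 0 = DMSO median and -100 = no signal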
The depositor's hits bear a star; i = inactive; ? = inconclusive; nt = no result given; & = joins results of further samples. This is a subset, so the mix of outcomes need not match the whole.

SMILES | AF4-AF9 inh | UCH37 DUB inh | FGF22 binding | A1 inh | T cruzi repl | Beta apoptosis | E coli growth | Ecoli rRNA inh | Ecoli rRNA inh OD600 | Ecoli rRNA inh RFP
Cc1cc(C)cc(N2C(=O)N(c3ccccc3C)C3CS(=O)(=O)CC32)c1 (centres undefined) | nt | 5.1 | nt | -0.8 | -3.3 | 0.0 | 0.679 | nt | nt | nt
CCCCN1C[C@H](O)[C@@H](O)[C@H](O)[C@H]1CO | -2.5 | 3.9 | i | 0.0 | -2.5 | -0.4 | nt | 5.4 | 8.3 | -0.3
COc1ccc(CC(=O)Nc2cc(S(=O)(=O)N3CCCCC3)ccc2C)cc1 | 1.7 | 3.4 | i | nt | nt | nt | 0.688 | 3.1 | 1.9 | 10.2
C=CC[C@@H](Cc1ccc(F)cc1)C(=O)OC[C@H]1CCCN1C(=O)[C@@H](CC=C)CC(=O)N(CCO)Cc1ccccc1 | -0.3 | 0.1 | i | nt | nt | nt | 0.692 | -25.5 | -38.0 | -3.7
COc1cccc(CN(C)CC(=O)Nc2cccc3ccccc23)c1 | 0.4 | 2.2 | i | 0.1 | -0.2 | -4.8 | 0.686 | -14.2 | -11.7 | -1.7
Cc1ccc(Cl)cc1N1CCN(S(=O)(=O)c2c(C(=O)N3CCOCC3)c(C)n(C)c2C)CC1 | 12.1 | 0.1 | i | -1.1 | 3.6 | nt | 0.678 | -4.0 | -15.6 | 5.5
CCCN1CC(O)=C(C#N)C1=O | -1.1 | 1.1 | i | 0.5 | -4.3 | 6.4 | 0.735 | 14.6 | 5.1 | -0.3
CN(C)S(=O)(=O)c1cccc(NC(=O)COC(=O)CCC(=O)c2cccs2)c1 | -0.4 | 4.4 | i | 1.0 | -11.8 | 0.9 | 0.709 | 2.3 | -9.8 | 1.1
Cc1nonc1OCCNc1ccc([N+](=O)[O-])cc1[N+](=O)[O-] | nt | 11.5 | nt | 0.2 | nt | 10.3 | 0.679 | nt | nt | nt
Cc1cc(C)c2nc(N3CCC(C(=O)NCc4cccnc4)CC3)sc2c1 | 1.2 | 1.9 | i | -0.2 | 14.0 | 7.1 | 0.668 | -2.6 | -9.1 | 1.5
CCOC(=O)C(CCSC)Nc1nc(Cl)nc(Nc2ccc(Cl)cc2)n1 (centres undefined) | 3.9 | 3.1 | i | 0.3 | -17.5 | -1.0 | 0.706 | -14.2 | -20.5 | -5.7
Cc1cc(N2CCCCC2)nc(SCC(=O)c2ccccc2)n1 | nt | 1.1 | nt | -2.0 | 18.4 | -3.9 | 0.724 | nt | nt | nt
COc1ccc(NC2CCCN(C(=O)C3(C)CCCCC3)C2)cc1OC (centres undefined) | 17.8 | 6.7 | i | 0.1 | 18.9 | -1.7 | 0.69 | 12.7 | 10.3 | 8.9
O=C(Nc1cc([N+](=O)[O-])ccc1C(=O)NCCN1CCOCC1)c1ccccc1 | 2.6 | 6.7 | i | 0.6 | 9.9 | nt | 0.694 | 7.5 | 5.5 | -0.6
CCc1ccc(NC(=O)Nc2cc(C(=O)NCC3CCCO3)ccc2N2CC3CC(C2)c2cccc(=O)n2C3)cc1 (centres undefined) | -1.6 | 3.2 | i | 0.1 | 3.5 | -0.9 | 0.709 | 0.3 | -6.1 | 0.4
Cc1noc(C)c1NC(=O)N(C)C[C@H]1Oc2ccc(NC(=O)NC3CCCCC3)cc2C(=O)N([C@H](C)CO)C[C@@H]1C | -3.0&1.2 | 4.7 | i | -0.6 | nt | -5.4 | nt | 0.1&-7.5 | 13.1&1.0 | 0.9&9.3
O=C1C(=O)N(CCN2CCOCC2)C(c2ccccn2)/C1=C(/O)c1ccc(Cl)cc1 (centres undefined) | nt | 9.1 | nt | 0.5 | -0.8 | -8.2 | 0.692 | nt | nt | nt
Cc1c(Cl)ccc2c(C(=O)O)cc(-c3ccccc3)nc12 | -7.1 | 2.0 | nt | 0.0 | 25.4 | -8.0 | 0.651 | -29.8 | -43.2 | -7.2
O=C(CN1CCOCC1)NNC(=O)c1ccc([N+](=O)[O-])cc1 | -10.5 | -0.4 | i | 0.1 | -13.1 | -0.2 | 0.738 | 15.4 | 15.4 | 1.0
CCC(C)(C)NC(=O)CN(C(=O)CCC(=O)Nc1nccs1)c1cccc(C)c1C | 0.7 | 3.7 | i | 1.0 | 10.3 | -2.5 | 0.66 | 2.0 | -1.3 | -0.5
COc1ccc2c(Cl)c(C(=O)NCC3CCCO3)sc2c1Cl (centres undefined) | nt | -2.6 | nt | 0.2 | 35.3 | -0.6 | 0.736 | nt | nt | nt
O=S(=O)(Nc1ccc(Cl)cn1)c1ccc2c(c1)OCCO2 | -0.9 | 2.9 | nt | 0.2 | 12.0 | nt | 0.677 | 1.9 | -3.8 | -3.0
COC(=O)c1ccc(N2NC(=O)/C(=C/c3cc(OC)c(OC)c(OC)c3)C2=O)cc1 | 0.9 | 7.1 | i | 0.3 | 2.4 | -5.9 | 0.658 | 1.2 | 6.7 | -1.1
CCOC(=O)C1C(=O)CC(C)(O)C(C(=O)OCC)C1c1ccccc1OC (centres undefined) | nt | 2.1 | nt | -0.3 | 3.9 | -7.0 | 0.719 | nt | nt | nt
O=[N+]([O-])c1cc(C(F)(F)F)ccc1N1CCN(S(=O)(=O)c2ccc3ccccc3c2)CC1 | nt | 0.7 | nt | 1.1 | 15.4 | 7.7 | 0.543* | nt | nt | nt
SMILES | AF4-AF9 inh | UCH37 DUB inh | FGF22 binding | A1 inh | T cruzi repl | Beta apoptosis | E coli growth | Ecoli rRNA inh | Ecoli rRNA inh OD600 | Ecoli rRNA inh RFP
Cc1ccc(C)c2sc(NC(=O)c3nc4ccccc4s3)nc12 | -2.4 | -5.1 | i | -0.5 | -10.8 | 13.1 | 0.775 | 6.3 | 9.7 | -1.2
Cc1c(-c2cccc(Cl)c2)nc2ccccc2c1C(=O)OCC(=O)Nc1ccc2c(c1)OCO2 | nt | 1.4 | nt | -0.3 | 55.0* | 13.2 | 0.757 | nt | nt | nt
Clc1ccc2scc(CN3CCCCC3)c2c1 | nt | 2.4 | nt | 0.2 | 11.7 | -0.9 | 0.673 | nt | nt | nt
Cc1ccc(C)c(NC(=O)C2CC3c4ccccc4C2c2ccccc23)c1 (centres undefined) | nt | 1.8 | nt | 0.1 | nt | 2.1 | 0.794 | nt | nt | nt
COc1cc2c(=O)n(CCC(=O)NCC3CCCO3)c(=O)n(CC(=O)Nc3ccccc3C)c2cc1OC (centres undefined) | 1.9 | -17.0 | i | -0.5 | 2.9 | -1.4 | 0.659 | -2.9 | 12.3 | -3.3
O=C(Nc1ccc(Oc2ccccc2)cc1)c1ccc(Cn2c(=O)[nH]c3ccsc3c2=O)cc1 | -13.7 | 4.7 | i | nt | -3.6 | 4.8 | 0.715 | -1.1 | 3.2 | -4.9
COc1ccc(/C=C/C(=O)Nc2ccccc2)cc1OC | 0.8 | 4.5 | i | -4.9 | -1.0 | 3.6 | 0.71 | -1.3 | -1.4 | -3.6
O=C(NCCN1CCOCC1)c1cc(-c2ccccc2)on1 | nt | 4.5 | nt | -0.1 | -4.5 | nt | 0.726 | nt | nt | nt
CCSc1nc(N2CCOCC2)c2c(c1C#N)CCCC2 | nt | 4.0 | nt | -0.4 | 12.1 | -8.2 | 0.702 | nt | nt | nt
CCN1CCN(C(=S)NC(C)c2ccccc2)CC1 (centres undefined) | nt | 3.0 | nt | 0.0 | -11.5 | 6.1 | 0.707 | nt | nt | nt
COc1cccc(N(CC(=O)Nc2ccccc2C(=O)N2CCCC2)S(C)(=O)=O)c1 | -0.7 | 4.4 | i | -0.5 | 2.8 | -2.6 | 0.698 | 2.6 | 7.6 | 0.4
CCOC(=O)N1CCN(C(=O)c2ccccc2NC(=O)c2ccc(F)cc2)CC1 | -0.8 | 0.7 | i | 0.0 | -12.0 | 1.9 | 0.691 | 6.9 | 6.9 | -0.4
COc1ccc(-c2nnc(NC(=O)Cc3ccccc3)o2)cc1 | -0.7 | 4.6 | i | 0.4 | -20.5 | -11.9 | 0.682 | -13.3 | -15.2 | -3.2
Cc1c(C(=O)N2CCN(c3ccccn3)CC2)oc2c1C(=O)CC(C)(C)C2 | -2.5 | -2.2 | i | 0.5 | 4.7 | -3.9 | 0.718 | -4.8 | -5.6 | -3.9
CCNS(=O)(=O)c1ccc(CCC(=O)Nc2ccc3c(c2)OCO3)cc1 | -0.8 | -0.5 | i | -0.6 | -0.4 | 2.3 | 0.669 | 0.6 | 7.4 | -2.2
NC(=O)CN1C(=O)NC2(CCCc3sccc32)C1=O (centres undefined) | -5.0 | 4.8 | i | 0.7 | -4.5 | -1.0 | 0.698 | 0.6 | -2.5 | -1.4
Cc1onc(-c2c(Cl)cccc2Cl)c1C(=O)N1CCN(c2ccc(F)cc2)CC1 | -0.3 | 5.8 | i | 0.8 | 14.0 | 0.1 | 0.7 | -3.6 | -2.8 | -0.4
CN(C)c1ccc(CC(=O)c2nc3ccccc3s2)cc1 | 6.6 | 6.9 | i | -6.5 | -5.6 | -14.8 | 0.698 | -3.8 | -7.5 | 2.6
COc1ccc(C(=O)NCC2CCCO2)cc1S(=O)(=O)N1CCCc2ccccc21 (centres undefined) | 1.4 | 0.6 | i | 0.2 | 12.2 | 3.1 | 0.721 | 1.4 | 2.1 | 2.7
COc1cc(C2CC(=O)C3=C(C2)Nc2ncnn2C3c2cccs2)cc(OC)c1OC (centres undefined) | -0.5 | -18.7 | i | 0.3 | 10.5 | -2.1 | 0.643 | 4.6 | -14.1 | 2.2
C/C=C(\C)CN1CCN(c2ccc(C)cc2)CC1 | nt | -0.8 | nt | -0.3 | -9.3 | -2.4 | 0.714 | nt | nt | nt
CC(=O)Nc1ccc(NC(=O)CC(NC(=O)c2ccccc2)c2ccccc2)cc1 (centres undefined) | -3.2 | 1.1 | i | -0.6 | -3.7 | 3.5 | 0.651 | 1.9 | 12.0 | 1.3
O=C(COC(=O)/C=C/c1ccccc1[N+](=O)[O-])NC1CC1 | -0.7 | 2.5 | i | 0.3 | -27.3 | -6.8 | 0.74 | 14.8 | 2.1 | 2.1
CCS(=O)(=O)c1ncc(Cl)c(C(=O)Nc2ccc(C)cc2)n1 | 1.5 | nt | i | ? | 79.2* | -30.7 | nt | -57.1 | -79.2 | -16.7
COc1cc(S(=O)(=O)N2CCN(C(=O)C3CC3)CC2)ccc1NC(C)=O | -1.3 | 0.9 | i | 1.2 | nt | -0.2 | 0.71 | 10.9 | 13.7 | 1.9
CCc1ccc(C(=O)NNc2ccc(F)cc2)cc1 | -1.0 | 0.9 | i | 0.0 | nt | 3.8 | 0.651 | 6.8 | 8.2 | -0.4
CCc1ccc(-c2cc(C(=O)NCc3ccco3)c3ccccc3n2)s1 | nt | -272.2 | nt | -0.3 | -15.3 | -1.3 | 0.687 | nt | nt | nt
N#Cc1c(-c2cccc([N+](=O)[O-])c2)nc2n(c1=O)CCS2 | -2.4 | 5.8 | i | 0.8 | -8.1 | -3.6 | 0.658 | 5.9 | 3.6 | 4.2

Assay outcomes (PubChem BioAssay)
